Bioassay records (PubChem BioAssay)
Rango dissoc inh: inhibitors of RanGTP-induced Rango-importin beta complex dissociation | 0.071% of 340,000 active | Biochemical FRET Rango-importin beta, RanGTP-induced dissociation | O95149+P62826 | Potency, µM (top dose mostly 46.1 µM), for the others: at the top dose activity change, negative = inhibition; active means falling FRET ratio curve, often poorly fitted, with flat reads before Ran was added; inconclusive means other falling curves, or compound fluorescence or quenching; inactive means flat or rising ratio curve;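 further: potency means the concentration at half of the fitted maximal effect; % of control where 0% means no effect; nearly all actives have a fitted effect of over 45% in size; -100% = wells without RanGTP and RCC1; the record marks most hits as doubtful in a second field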
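Compounds sat 5 min at room temperature with 0.1 uM Rango biosensor plus 0.25 uM importin beta, then FRET pre-read. RanGTP-RCC1 (0.6 uM Ran, 2mM GTP, 0.2 uM RCC1) added for 45 min, and the CFP/YFP post-read measured blocked complex dissociation.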
GLA inh pH 4.5: inhibitors of human alpha-galactosidase A at pH 4.5; activity change, negative = inhibition, % at 105 µM; P06280; 230,000 tested, under 10 active; purified enzyme, 4-MU-alpha-Gal fluorescence, pH 4.5; AID 1467; inconclusive = small, poorly fitted or top-dose-only inhibition, or a rising curve; inactive = flat fitted curve, though single readings scatter; no compound was filed as active;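 further: 0% = full activity with enzyme and -100% = basal without enzyme; dose as in the result columns while the protocol names 77 µM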
Target sequence (P06280 whole entry, looked up): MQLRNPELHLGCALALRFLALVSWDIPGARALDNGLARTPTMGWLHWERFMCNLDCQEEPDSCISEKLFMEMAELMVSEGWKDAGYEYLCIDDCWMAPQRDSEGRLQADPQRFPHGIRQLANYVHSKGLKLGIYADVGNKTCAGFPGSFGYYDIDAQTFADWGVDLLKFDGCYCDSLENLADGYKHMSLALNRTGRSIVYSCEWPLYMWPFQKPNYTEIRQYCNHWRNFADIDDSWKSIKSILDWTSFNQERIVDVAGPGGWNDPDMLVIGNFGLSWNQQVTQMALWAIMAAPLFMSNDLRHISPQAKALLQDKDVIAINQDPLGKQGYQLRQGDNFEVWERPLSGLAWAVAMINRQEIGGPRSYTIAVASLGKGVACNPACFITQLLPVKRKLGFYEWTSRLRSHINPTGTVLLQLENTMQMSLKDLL
miR-21 FLuc: miR-21 reporter, rising signal; HeLa miR-21 FLuc reporter, luciferase, 48 h; Potency, µM (doses to about 38.3 µM), for the others: top-dose reporter change, positive = more light; 340,000 tested, under 10 active; AID 2288; active = well fitted rising curve with a large enough effect; inconclusive = small, poorly fitted or top-dose-only effect; inactive = no such curve, though single readings can be large or run the other way;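 further: % of control where 0% means no effect; miR-21 action dims this reporter so a rising signal means less miR-21 action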
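HeLa cells stably expressing CMV-driven firefly luciferase with a downstream miR-21 binding sequence, endogenously expressing miR-21, were treated with titrations (up to about 40uM final) for 48 hours at 37 degree Celsius. Luciferase luminescence was read after lysis.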
Rango-impB inh: prevents formation of the Rango-importin beta complex | Q14974 | Rango CFP/YFP FRET sensor + importin beta, 45 min | Potency, µM (titrated, usually from 92.2 µM), for the others: at the top dose inhibition of complex formation | 0.031% of 340,000 active | AID 540263; active = rising FRET ratio curve, often small or poorly fitted; inconclusive = mostly compound fluorescence or quenching in the first reads; inactive = flat curves in all reads;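 further: potency means the concentration at half of the fitted maximal effect; 0% = DMSO wells and 100% = buffer wells lacking importin beta; nearly all actives have a fitted effect of over 15% in size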
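Inhibition scored from the CFP 486 nm/YFP 530 nm FRET ratio 45 min after adding 0.125 microM importin beta to 50 nM Rango biosensor preincubated 5 min with compound (room temperature, PBS with DTT, Tween-20, BSA). No-importin wells as positive control.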
* = called active by the depositor; ? = inconclusive; . = not tested or not shown; [ ] = another dose, or the depositor's remark. Some of the compounds tested (hit frequency here may not be typical).

1) Cc1ccc(CN2CCSc3ccc(C(=O)NCc4ccco4)cc32)cc1
2) COc1cc(SC)ccc1C(=O)N1CCN(c2ccccc2OC)CC1
3) Cn1cccc1C1CCCN1CC(=O)Nc1c(Cl)cc(Cl)cc1Cl (centres undefined)
4) CCOC(=O)C1(Cc2ccccc2C)CCCN(C(=O)CSC)C1 (centres undefined)
5) O=C(CCN1CCN(c2ccccc2)CC1)c1ccc(Cl)cc1
assay / compound,1,2,3,4,5
Rango dissoc inh,1%,21%,-9%,6%,-1%
GLA inh pH 4.5,-6,5,.,.,.
miR-21 FLuc,3%,17%,.,.,-6%
Rango-impB inh,-2.3%,2.5%,0.5%,-0.1%,-1.3%

6) CC(C)(C)c1ccc(OCCn2nc(C(=O)O)c3ccccc3c2=O)cc1
7) Cc1ccc(C2C(C(=O)c3sc(-c4ccccc4)nc3C)=C(O)C(=O)N2CCN(C)C)o1 (centres undefined)
8) Cc1cccc(NC(=O)c2c(F)c(F)c(F)c(F)c2F)c1
9) O=C(CSc1nc2ccccc2s1)NCCOc1ccccc1
10) Cc1ccc(S(=O)(=O)N(C)Cc2cc3ccccc3[nH]c2=O)cc1
assay / compound,6,7,8,9,10
Rango dissoc inh,23%,-12%,1%,-1%,13%
GLA inh pH 4.5,.,.,2,0,-13
miR-21 FLuc,-16%,.,1%,-32%,-4%
Rango-impB inh,3.8%,2.9%,-2.9%,0.0%,-1.1%

11) OC(CN1CCN(c2ccccc2Cl)CC1)c1ccccc1 (centres undefined)
12) COc1ccc(CCNS(=O)(=O)CCNC(=O)c2ccc(OC)cc2)cc1
13) CS(=O)(=O)N1N=C(c2ccco2)CC1c1ccccc1Cl (centres undefined)
14) CCCn1c(N)c(C(=O)CSc2nc(C3CC3)n(-c3ccccc3)n2)c(=O)[nH]c1=O
15) CCN(c1ccccc1C(=O)O)S(=O)(=O)c1ccc2[nH]c(=O)[nH]c2c1
assay / compound,11,12,13,14,15
Rango dissoc inh,-6%,-13%,?,-8%,-14%
GLA inh pH 4.5,.,.,-12,.,.
miR-21 FLuc,15%,.,-5%,.,-3%
Rango-impB inh,1.7%,3.7%,7.2%,-0.9%,-0.9%

16) C#CCOCCOCCOCCNc1nc(N2CCN(C(=O)[C@H](CCC(=O)O)n3cc([C@@H](N)CC(N)=O)nn3)CC2)nc(N2CCN(C(=O)[C@H](CCC(=O)O)n3cc([C@@H](N)CC(N)=O)nn3)CC2)n1
17) COc1ccc(NC(=O)CSc2nc(C)cs2)cc1OC
18) O=C(NCc1nnc(SCC(=O)N2CCCc3ccccc32)n1-c1ccccc1)c1cccc2ccccc12
19) COc1cc(Cl)c(CC(=O)c2c[nH]c3ccccc23)cc1OC
20) COCCn1c(SCC(=O)NCC2CCCO2)nc2c([nH]c3ccccc32)c1=O (centres undefined)
assay / compound,16,17,18,19,20
Rango dissoc inh,-16%,-19%,1%,17%,-4%
GLA inh pH 4.5,.,-3,-6,-6,.
miR-21 FLuc,.,-4%,8%,-3%,8%
Rango-impB inh,-2.8%,1.7%,2.7%,1.5%,-2.2%

Shown tab-delimited: part of the list above
no.	structure	Rango dissoc inh	GLA inh pH 4.5	miR-21 FLuc	Rango-impB inh
9	O=C(CSc1nc2ccccc2s1)NCCOc1ccccc1	-1%	0	-32%	0.0%
10	Cc1ccc(S(=O)(=O)N(C)Cc2cc3ccccc3[nH]c2=O)cc1	13%	-13	-4%	-1.1%
11	OC(CN1CCN(c2ccccc2Cl)CC1)c1ccccc1 (centres undefined)	-6%	.	15%	1.7%
12	COc1ccc(CCNS(=O)(=O)CCNC(=O)c2ccc(OC)cc2)cc1	-13%	.	.	3.7%
13	CS(=O)(=O)N1N=C(c2ccco2)CC1c1ccccc1Cl (centres undefined)	?	-12	-5%	7.2%
14	CCCn1c(N)c(C(=O)CSc2nc(C3CC3)n(-c3ccccc3)n2)c(=O)[nH]c1=O	-8%	.	.	-0.9%
15	CCN(c1ccccc1C(=O)O)S(=O)(=O)c1ccc2[nH]c(=O)[nH]c2c1	-14%	.	-3%	-0.9%

Next entries follow:
21) O=C(CSc1nc2ccccc2o1)Nc1nc2ccccc2s1
22) CC(C)(C)OC(=O)C[C@@H]1C/C=C\C[C@H](CC(=O)NCCO)C(=O)N[C@H](Cc2ccccc2)COC1=O
23) CC1CCN(C(=O)CSc2nncn2-c2ccccn2)CC1
24) O=C(Oc1cccc(-n2cnnn2)c1)C1CCCCC1
25) O=C(N/N=C/c1ccc2c(c1)OCO2)c1ccc(Cl)cc1Cl
assay / compound,21,22,23,24,25
Rango dissoc inh,-2%,-12%,-11%,-13%,16%
GLA inh pH 4.5,-5,.,13,-1,.
miR-21 FLuc,-45%,.,-8%,1%,-6%
Rango-impB inh,-0.2%,0.2%,0.2%,-1.0%,0.3%

26) CCc1c(C)nc2c(C)cccc2c1SCCC#N
27) COc1ccc2c(c1)c(=O)oc1c(C)c(OCC(=O)N3CCc4ccccc4C3)ccc12
28) C/C(CC(=O)Nc1ccc2c(c1)OCCO2)=N\NC(=O)COc1ccc(C)cc1Br
29) COC(=O)c1[nH]c(C)c(/C(O)=C2\C(=O)C(=O)N(CCN3CCOCC3)C2c2ccccc2OC)c1C (centres undefined)
30) Cc1ccc(CC(=O)Nc2ccc(S(=O)(=O)Nc3ncccn3)cc2)cc1
assay / compound,26,27,28,29,30
Rango dissoc inh,11%,6%,?,-8%,35%
GLA inh pH 4.5,-4,-8,.,-10,.
miR-21 FLuc,-2%,-4%,-1%,19%,-7%
Rango-impB inh,1.8%,1.3%,-0.6%,-0.4%,1.2%

A draw from above in order of SMILES length, smallest number first:
17) COc1ccc(NC(=O)CSc2nc(C)cs2)cc1OC
2) COc1cc(SC)ccc1C(=O)N1CCN(c2ccccc2OC)CC1
27) COc1ccc2c(c1)c(=O)oc1c(C)c(OCC(=O)N3CCc4ccccc4C3)ccc12
assay / compound,17,2,27
Rango dissoc inh,-19%,21%,6%
GLA inh pH 4.5,-3,5,-8
miR-21 FLuc,-4%,17%,-4%
Rango-impB inh,1.7%,2.5%,1.3%

New compounds follow:
31) Cc1cc(C)cc(Nc2c(F)c(F)c(F)c(F)c2C(=O)O)c1
32) COc1ccc(Br)cc1S(=O)(=O)Nc1cccc(C)n1
33) COc1ccc(Cl)cc1C(=O)Nc1ccc(OCC(=O)N2CCOCC2)cc1
34) O=C(COC(=O)CC1CC2CCC1C2)Nc1ccc(F)cc1Cl (centres undefined)
35) CN(Cc1c(C(=O)N/N=C/c2ccc(F)cc2)nnn1-c1nonc1N)C1CCCCC1
assay / compound,31,32,33,34,35
Rango dissoc inh,?,10%,6%,-15%,3%
GLA inh pH 4.5,-2,2,.,.,.
miR-21 FLuc,7%,0%,-15%,.,-3%
Rango-impB inh,3.7%,-0.2%,-0.1%,2.9%,4.7%

36) CCOc1cc(S(=O)(=O)n2c(C)nc3ccccc32)ccc1F
37) S=C(NCCCn1ccnc1)Nc1cccc(Cl)c1
38) C#CCN1C=CC(=O)[C@@H](OC(=O)NCCC)[C@H]1c1ccccc1Br
39) COC(=O)c1cc(NC(=O)CN2CCC(C(N)=O)(N3CCCCC3)CC2)cc(C(=O)OC)c1
40) CC1CN(Cc2cc(=O)oc3cc(O)c(Cl)cc23)CC(C)O1 (centres undefined)
assay / compound,36,37,38,39,40
Rango dissoc inh,-2%,0%,-4%,6%,?
GLA inh pH 4.5,-3,-1,.,-19,.
miR-21 FLuc,-1%,4%,.,-2%,-6%
Rango-impB inh,5.7%,-0.3%,2.2%,-0.7%,?

41) CCCn1nc(NC(=O)CC)c2cc3cccc(C)c3nc21
42) COC(=O)C1=C(C)Nc2nc3ccccc3n2C1c1ccccc1F (centres undefined)
43) CSc1ccc(CN(C)C(=O)c2ccc(S(=O)(=O)Nc3ccccc3)cc2)cc1
44) CC1(C)Cc2c(sc3c2c(=N)n(Cc2ccco2)c(=O)n3Cc2ccc(F)cc2)CO1
45) CCCOc1ccc(/C=N/Nc2ccccc2[N+](=O)[O-])c(O)c1
assay / compound,41,42,43,44,45
Rango dissoc inh,?,0%,12%,-3%,15%
GLA inh pH 4.5,.,3,.,-23,-5
miR-21 FLuc,0%,3%,.,-7%,-84%
Rango-impB inh,?,-1.0%,2.6%,-1.0%,2.4%

46) COc1ccc(Nc2ncnc3sc(-c4ccccc4)cc23)c(OC)c1
47) COc1ccc(CNCCC(c2ccc(OC)cc2)c2ccccc2OC)cc1 (centres undefined)
48) C[C@H](NC(=O)[C@@H]1CCC(=O)N1Cc1ccco1)c1ccccc1
49) Cc1ccc(C)c(S(=O)(=O)c2c(C)cc(C)nc2Cl)c1
50) CCOC(=O)c1sc2nc(C)nc(NCCc3ccccn3)c2c1C
assay / compound,46,47,48,49,50
Rango dissoc inh,-6%,12%,-10%,0%,-10%
GLA inh pH 4.5,1,.,2,.,-3[21.1 µM]
miR-21 FLuc,-14%,17%,0%,-10%,9%
Rango-impB inh,-3.6%,-3.3%,-0.6%,4.6%,?

51) COc1ccc(CCNC(=O)C2CCN(C(=O)c3ccc(Cl)cc3)CC2)cc1OC
52) CCN1CCN(c2nc3c(c(=O)[nH]c(=O)n3C)n2CCSc2nc3ccccc3s2)CC1
53) C=CC[C@@H](CC(=O)N(CCO)Cc1ccccc1)C(=O)NCCOC(=O)[C@H](CC=C)CC(=O)OC(C)(C)C
54) CC(C)NCC(O)COc1ccc2c(c1)CCC2 (centres undefined)
55) NC(Cc1c[nH]c2ccccc12)C(=O)Nc1ccccc1 (centres undefined)
assay / compound,51,52,53,54,55
Rango dissoc inh,?,-10%,-5%,-5%,-7%
GLA inh pH 4.5,.,3,.,11,.
miR-21 FLuc,-2%,-20%,.,0%,.
Rango-impB inh,?,-2.6%,0.1%,-1.0%,0.0%

56) CCOc1ccc(S(=O)(=O)N(CC(=O)N/N=C/c2ccc(-c3ccc([N+](=O)[O-])cc3)o2)c2ccccc2)cc1
57) N#Cc1c(NC(=O)CSc2nc(N)cc(=O)[nH]2)sc2c1CCCCCC2
58) O=C(/C=C/c1ccc(F)cc1)N1CCN(c2ccccn2)CC1
59) CNC(=O)CSc1nnc(C(C)C)n1C
60) CCNC(=O)N1C(CC(=O)OCC)C(=O)NC2CCCCC21 (centres undefined)
assay / compound,56,57,58,59,60
Rango dissoc inh,?,11%,1%,-2%,4%
GLA inh pH 4.5,-16,-1,7,8,-1
miR-21 FLuc,13%,7%,-28%,1%,-2%
Rango-impB inh,?,3.9%,-1.1%,-6.7%,0.2%

61) CC(=O)Nc1ccc(S(=O)(=O)N(C)CC(=O)NNC(=O)c2cccs2)cc1
62) Cc1nc(-c2ccc(NC(=O)c3ccccc3C)cc2)cs1
63) CCOC(=O)C1C(=O)OC2(CCOC(C)(C)C2)C1C(=O)OCC (centres undefined)
64) COc1ccc(-n2nc3c(c2NC(=O)C24CC5CC(CC(C5)C2)C4)CS(=O)C3)cc1 (centres undefined)
65) COc1ccc(CNCC(O)(c2ccc(Cl)cc2)c2ccc(Cl)cc2)cc1
66) COc1ccccc1CN1C(=NC(=O)CCC2CCCC2)SC2CS(=O)(=O)CC21 (centres undefined)
assay / compound,61,62,63,64,65,66
Rango dissoc inh,3%,13%,1%,45%,-2%,-4%
GLA inh pH 4.5,.,5,2,-1,1,.
miR-21 FLuc,.,-44%,-3%,-12%,16%,0%
Rango-impB inh,-3.8%,-2.7%,-1.8%,-1.7%,-5.3%,-0.2%
